Rango-impB inh: qHTS Assay for Inhibitors of Rango (Ran-regulated importin-beta cargo) - Importin beta complex formation; Rango CFP/YFP FRET sensor + importin beta, 45 min; Potency, µM (titrated, usually from 92.2 µM), without a hit: at the top dose inhibition of complex formation; 340,000 compounds, 0.031% hits; AID 540263, 2011; active = rising FRET ratio curve, often small or poorly fitted; inconclusive = mostly compound fluorescence or quenching in the first reads; inactive = flat curves in all reads;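 note: potency is the fitted concentration of half-maximal effect; 0% = DMSO wells and 100% = buffer wells lacking importin beta; nearly all actives have a fitted effect of over 15% in size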
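FRET biosensor Rango (snurportin 1 IBB between N-terminal EYFP and C-terminal Cerulean), 50 nM in PBS/1 mM DTT/0.02% Tween-20/0.1% BSA, preincubated 5 min RT with compound; 0.125 microM importin beta added, 45 min RT, CFP/YFP FRET ratio read.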
Rango release inh: qHTS Assay for Inhibitors of RanGTP induced Rango (Ran-regulated importin-beta cargo) - Importin beta complex dissociation | Snurportin-1 (Homo sapiens) + GTP-binding nuclear protein Ran (Homo sapiens) + Importin … | Biochemical FRET Rango-importin beta, RanGTP-induced dissociation | 340,000 compounds, 0.071% hits | Potency, µM (top dose mostly 46.1 µM), for the others: top-dose activity change, negative = inhibition; active means falling FRET ratio curve, often poorly fitted, with flat reads before Ran was added; inconclusive means other falling curves, or compound fluorescence or quenching; inactive means flat or rising ratio curve;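 note: potency is the fitted concentration of half-maximal effect; % of control where 0% means no effect; nearly all actives have a fitted effect of over 45% in size; -100% = wells without RanGTP and RCC1; the record marks most hits as doubtful in a second field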
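Two FRET readings bracket the reaction: one 5 min after compound meets Rango–importin beta, another 45 min after RanGTP-RCC1 (0.6 uM Ran, 0.2 uM RCC1, 2 mM GTP) is added. Only the second defines inhibition.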
GLA inh pH 4.5: qHTS Assay for Inhibitors of Human alpha-Galactosidase at pH 4.5; AID 1467, 2008; purified enzyme, 4-MU-alpha-Gal fluorescence, pH 4.5; activity change, negative = inhibition, % at 105 µM; 230,000 tested, under 10 active; inconclusive = small, poorly fitted or top-dose-only inhibition, or a rising curve; inactive = flat fitted curve, though single readings scatter; no compound was filed as active;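 note: 0% = full activity with enzyme and -100% = basal without enzyme; dose as in the result columns while the protocol names 77 µM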
Target sequence (P06280 whole entry, looked up): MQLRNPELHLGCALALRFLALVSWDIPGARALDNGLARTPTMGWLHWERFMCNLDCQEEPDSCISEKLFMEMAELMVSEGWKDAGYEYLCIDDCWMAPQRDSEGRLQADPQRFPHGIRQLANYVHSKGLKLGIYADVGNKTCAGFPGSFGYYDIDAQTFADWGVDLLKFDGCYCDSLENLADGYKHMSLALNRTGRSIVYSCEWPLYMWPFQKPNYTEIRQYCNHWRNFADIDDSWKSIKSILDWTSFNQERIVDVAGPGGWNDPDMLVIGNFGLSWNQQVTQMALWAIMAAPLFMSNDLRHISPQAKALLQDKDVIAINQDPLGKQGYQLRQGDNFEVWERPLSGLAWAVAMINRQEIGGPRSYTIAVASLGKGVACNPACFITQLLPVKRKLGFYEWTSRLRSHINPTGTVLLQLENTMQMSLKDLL
miR-21 FLuc: qHTS Assay for Modulators of miRNAs and/orActivators of miR-21; Potency, µM (series often up to 38.3 µM), for inactives: at the highest dose reporter change, positive = more light; AID 2288, 2010; HeLa miR-21 FLuc reporter, luciferase, 48 h; 340,000 tested, under 10 active; active = well fitted rising curve with a large enough effect; inconclusive = small, poorly fitted or top-dose-only effect; inactive = no such curve, though single readings can be large or run the other way;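 note: % of control where 0% means no effect; miR-21 action dims this reporter so a rising signal means less miR-21 action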
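HeLa cells stably expressing CMV-driven firefly luciferase with a downstream miR-21 binding sequence, endogenously expressing miR-21, were treated with titrations (up to about 40uM final) for 48 hours at 37 degree Celsius. Luciferase luminescence was read after lysis.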
* marks the source's active call; other numbers are inactive results; & = joins results of further samples. The list is partial (hit frequency here may not be typical).

For C#CCOCCOCCOCCNc1nc(N2CCN(C(=O)[C@H]([C@@H](C)CC)n3cc([C@@H](N)Cc4ccc(O)cc4)nn3)CC2)nc(N2CCN(C(=O)[C@H](Cc3cc4ccccc4[nH]3)n3cc([C@@H](N)C(C)CC)nn3)CC2)n1 (stereo not given in full) the results were GLA inh pH 4.5 -4.5 and miR-21 FLuc 0.6%.
Screening NCCCC[C@H]1CN=C(N)N1CCc1cccc2ccccc12 returned Rango-impB inh inconclusive and Rango release inh -3.5%.
`O=c1c2cn[nH]c2[nH]c(=S)n1-c1ccccc1` gave Rango-impB inh 1.4%, Rango release inh 0.0%, GLA inh pH 4.5 6.0 and miR-21 FLuc 2.0%.
`COc1ccc(-c2nc(SC)n(C(=O)c3ccco3)n2)cc1` gave Rango-impB inh -5.2%, Rango release inh 1.6%, GLA inh pH 4.5 -5.1 and miR-21 FLuc -39.6%.
Cc1ccc(S(=O)(=O)NC2=NCN(CCOC(=O)c3ccccc3)CN2)cc1 was read as Rango-impB inh -1.6%, Rango release inh 25.3%, GLA inh pH 4.5 -12.9 and miR-21 FLuc 2.6%.
Screening Cc1c(Cl)cccc1NC(=O)C1C2C=CC(C2)C1C(=O)O (stereo not given) returned Rango-impB inh 2.0%, Rango release inh -0.5% and miR-21 FLuc 1.9%.
Screening O=C(O)COC(=O)C1C(c2ccccc2)C(C(=O)O)C1c1ccccc1 (stereo not given) returned Rango-impB inh -0.3%, Rango release inh 19.6%, GLA inh pH 4.5 4.8 and miR-21 FLuc 0.5%.
`CC12C=CC3(CN(Cc4ccccc4)C(=O)C3C1C(=O)NCc1ccco1)O2` (stereo not given) gave Rango-impB inh -4.8%, Rango release inh -6.8%, GLA inh pH 4.5 -2.5 and miR-21 FLuc -2.2%.
Cc1ccc(-n2c(SCC(N)=O)nc3c(oc4ccccc43)c2=O)cc1 was read as Rango-impB inh -1.4%, Rango release inh -9.1% and miR-21 FLuc -9.6%&0.1%.
For CC(=O)Nc1ccc(NS(=O)(=O)c2cc(-c3cnc(C4CC4)o3)ccc2C)cc1 the results were Rango-impB inh 4.7%, Rango release inh 1.9% and miR-21 FLuc 2.6%.
Cc1ccnc(NC(=O)CCC2CCCCC2)c1 was read as Rango-impB inh -1.0%, Rango release inh 8.2%, GLA inh pH 4.5 7.5 and miR-21 FLuc -54.4%.
`COc1cccc(CN2CCNC(=O)C2CC(=O)NCCCN2CCCC2=O)c1` (stereo not given) gave Rango-impB inh -3.1%, Rango release inh 7.6% and miR-21 FLuc -0.9%.
`CN(Cc1ccco1)C(=O)C(Cc1ccccc1)NS(=O)(=O)c1ccc2c(c1)CCC(=O)N2` (stereo not given) gave Rango-impB inh -2.3%, Rango release inh -3.3%, GLA inh pH 4.5 -2.3 and miR-21 FLuc -1.2%.
For Cc1cccc(OCc2nnc(SCC(=O)N3CCc4ccccc43)n2C)c1 the results were Rango-impB inh 0.3%, Rango release inh 18.3%, GLA inh pH 4.5 -8.2 and miR-21 FLuc -0.2%.
`COc1cccc(Nc2nc(N)c([N+](=O)[O-])c(N3CCOCC3)n2)c1` gave Rango-impB inh 6.2%, Rango release inh -3.0% and miR-21 FLuc -4.7%.
For CC(=O)N1Cc2ccccc2C(C)CC12CCCCC2 (stereo not given) the results were Rango-impB inh 0.3%, Rango release inh 6.8%, GLA inh pH 4.5 2.8 and miR-21 FLuc -4.9%.
For Cc1c(Cl)cccc1N/C(=N/S(=O)(=O)c1cccs1)c1ccccc1 the results were Rango-impB inh 4.6%, Rango release inh 20.0%, GLA inh pH 4.5 -4.6 and miR-21 FLuc 7.4%.
COc1ccc(-c2[nH]ncc2/C=C(/C#N)C(=O)NC2CCCCC2)cc1 was read as Rango-impB inh -1.0%, Rango release inh -11.2%, GLA inh pH 4.5 -10.6 and miR-21 FLuc 6.6%.
COc1ccc(S(=O)(=O)N(C)C[C@H]2Oc3c(NC(=O)Nc4ccc(C(F)(F)F)cc4)cccc3C(=O)N([C@H](C)CO)C[C@@H]2C)cc1 was read as Rango-impB inh 0.0% and Rango release inh 15.4%.
CCC(C)[C@H]1CNC(=S)N1CCc1cc(C(F)(F)F)cc(C(F)(F)F)c1 (stereo not given in full) was read as Rango-impB inh 0.1%, Rango release inh -4.0%, GLA inh pH 4.5 -14.6 and miR-21 FLuc 3.2%.
`Cc1csc(NC(=O)CSc2nnc(-c3ccco3)n2C)n1` gave Rango-impB inh 0.9%, Rango release inh 5.0%, GLA inh pH 4.5 -7.4 and miR-21 FLuc -7.9%.
Screening CC(=O)Nc1ccc(N2C(=O)CC(N3CC(C)OC(C)C3)C2=O)cc1 (stereo not given) returned Rango-impB inh 0.1%, Rango release inh 8.7%, GLA inh pH 4.5 1.2 and miR-21 FLuc -5.8%.
OCC[C@@H]1C[C@H](O)[C@@H](O)[C@]2(Cc3ccccc3O2)O1 was read as Rango-impB inh -0.1%, Rango release inh 7.8% and miR-21 FLuc -2.0%.
Screening COc1ccccc1CNCC(O)(c1ccc(F)cc1)c1ccc(F)cc1 returned Rango-impB inh 2.6%, Rango release inh -17.0% and miR-21 FLuc 11.5%.
For O=C(NCc1ccc2c(c1)OCO2)c1ccc(CSCc2ccccc2Cl)o1 the results were Rango-impB inh -5.4%, Rango release inh 19.0%, GLA inh pH 4.5 2.6 and miR-21 FLuc -5.1%.
COC(=O)c1cccc(F)c1C(=O)c1cccc2ccccc12 was read as Rango-impB inh 0.8% and Rango release inh -15.1%.
CCN(CC)S(=O)(=O)c1ccc2c(c1)nc(CCC(=O)OCC(=O)Nc1c(F)cccc1F)n2C was read as Rango-impB inh inconclusive, Rango release inh -1.3%, GLA inh pH 4.5 -5.8 and miR-21 FLuc 2.9%.
For CCOC(=O)CNC(=S)N1CCn2c(nc3ccccc32)C1 the results were Rango-impB inh 0.1%, Rango release inh 10.4%, GLA inh pH 4.5 -3.8 and miR-21 FLuc 1.4%.
COc1cc(CC(=O)OCC(=O)NCc2cccs2)cc(OC)c1OC was read as Rango-impB inh 0.1% and Rango release inh 3.5%.
Screening Cc1cc(NC(=O)CN(C)S(=O)(=O)c2cnc[nH]2)ccc1Br returned Rango-impB inh -0.6%, Rango release inh 5.1% and miR-21 FLuc -17.0%.
For O=C(Nc1ccc(Br)cc1)C1CCC(=O)N1Cc1ccccc1Cl (stereo not given) the results were Rango-impB inh 3.0%, Rango release inh -9.2%, GLA inh pH 4.5 -21.7 and miR-21 FLuc 0.6%.
CCCNC(=O)c1nc(C)n(-c2cc(Cl)cc(Cl)c2)n1 was read as Rango-impB inh -1.2%, Rango release inh 6.2%, GLA inh pH 4.5 2.1 and miR-21 FLuc -12.5%.
`O=C(NN=Cc1c(F)cccc1F)c1ccccc1NS(=O)(=O)c1cccs1` gave Rango-impB inh -1.1% and Rango release inh 2.0%.
`Cc1noc(C)c1COC(=O)c1ccc2c(c1)OCCO2` gave Rango-impB inh -2.6%, Rango release inh 5.0%, GLA inh pH 4.5 -3.3 and miR-21 FLuc -10.0%.
`COc1ccccc1NC(=O)C1CCN(S(=O)(=O)c2ccc3c(c2)NC(=O)C(C)S3)CC1` (stereo not given) gave Rango-impB inh 3.6%, Rango release inh 1.1% and miR-21 FLuc 14.8%.
For CNc1ccc(Br)cc(C(=O)/C=C/c2ccc(Cl)cc2Cl)c1=O the results were Rango-impB inh inconclusive, Rango release inh -9.8%, GLA inh pH 4.5 0.0 and miR-21 FLuc -5.8%.
`COc1ccccc1NC(=O)COC(=O)c1cnccn1` gave Rango-impB inh 0.0%, Rango release inh -9.1%, GLA inh pH 4.5 7.4 and miR-21 FLuc -3.4%.
`CCOC(=O)c1cnc2ccccc2c1Nc1ccc(C(=O)O)cc1` gave Rango-impB inh 0.2%, Rango release inh -12.3%, GLA inh pH 4.5 1.2 and miR-21 FLuc -17.2%.
COc1ccc(/C=C/C(=O)Nc2ccccc2C(N)=O)cc1S(=O)(=O)N1CCOCC1 was read as Rango-impB inh -3.6% and Rango release inh -0.6%.
For CCCN(CCC)C(=O)CSc1nc2n[nH]c(C)c2c(=N)n1-c1ccc(OC)cc1 the results were Rango-impB inh -1.9%, Rango release inh 10.7%, GLA inh pH 4.5 -5.6 and miR-21 FLuc 23.0%.

Arranged by SMILES length (high to low): part of the list above
COc1ccc(/C=C/C(=O)Nc2ccccc2C(N)=O)cc1S(=O)(=O)N1CCOCC1 was read as Rango-impB inh -3.6% and Rango release inh -0.6%.
For CCCN(CCC)C(=O)CSc1nc2n[nH]c(C)c2c(=N)n1-c1ccc(OC)cc1 the results were Rango-impB inh -1.9%, Rango release inh 10.7%, GLA inh pH 4.5 -5.6 and miR-21 FLuc 23.0%.
`O=C(NN=Cc1c(F)cccc1F)c1ccccc1NS(=O)(=O)c1cccs1` gave Rango-impB inh -1.1% and Rango release inh 2.0%.
`Cc1noc(C)c1COC(=O)c1ccc2c(c1)OCCO2` gave Rango-impB inh -2.6%, Rango release inh 5.0%, GLA inh pH 4.5 -3.3 and miR-21 FLuc -10.0%.

The list goes on:
CCOc1ccc2[nH]c3c(=O)n(CCC4=CCCCC4)cnc3c2c1 was read as Rango-impB inh -0.7%, Rango release inh -2.4%, GLA inh pH 4.5 6.3 and miR-21 FLuc -1.0%.
`O=C(Nc1ccc(C(F)(F)F)cc1)c1cc(S(=O)(=O)NCC2COc3ccccc3O2)ccc1F` (stereo not given) gave Rango-impB inh 0.6%, Rango release inh -5.0%, GLA inh pH 4.5 inconclusive and miR-21 FLuc 28.5%.
`COC(=O)[C@]1(Cc2ccccc2)N[C@H](CN(C)S(=O)(=O)c2ccc(OC(F)(F)F)cc2)[C@@H]2C(=O)N(C)C(=O)[C@@H]21` gave Rango-impB inh -0.1% and Rango release inh 12.6%.
`COc1ccc(F)cc1S(=O)(=O)Nc1cc2c3c(c1)CCN3C(=O)CC2` gave Rango-impB inh 3.4% and Rango release inh -2.9%.
Screening COCCSc1ccccc1C(=O)N1CCc2ccccc21 returned Rango-impB inh -2.6%, Rango release inh -14.7% and miR-21 FLuc -6.0%.
Screening Cc1ccc(CC(=O)O/N=C(\N)c2ccncc2)cc1 returned Rango-impB inh 0.5%, Rango release inh 1.8% and miR-21 FLuc -18.6%.
For COc1ccc(C(C)=O)cc1COc1cccc2c1OC(C)(C)C2 the results were Rango-impB inh -0.6%, Rango release inh -3.8% and miR-21 FLuc -5.0%.
`O=C1C(=O)N(CNc2cccnc2)c2ccccc21` gave Rango-impB inh -0.1%, Rango release inh -1.6%, GLA inh pH 4.5 3.2 and miR-21 FLuc -2.2%.
`CC1=C(C(=O)N2CCCC(CCC(=O)NCc3ccc(F)c(F)c3)C2)OCCO1` (stereo not given) gave Rango-impB inh -1.2%, Rango release inh 19.3%, GLA inh pH 4.5 1.1 and miR-21 FLuc -7.4%.
For COc1cc(C2c3c(-c4ccccc4)n[nH]c3C(=O)N2c2ccc(C(=O)O)cc2)ccc1O (stereo not given) the results were Rango-impB inh inconclusive, Rango release inh 14.5%, GLA inh pH 4.5 -7.5 and miR-21 FLuc 1.6%.
Screening O=C1c2ccccc2C(=O)c2c1cccc2N1CCN(CCO)CC1 returned Rango-impB inh -3.7%, Rango release inh -6.8%, GLA inh pH 4.5 -1.1 and miR-21 FLuc -31.3%.
`CCCCOc1ccc(CNC(=S)N/N=C/c2ccc(OC)c(OC)c2)cc1` gave Rango-impB inh 3.1%, Rango release inh -18.1%, GLA inh pH 4.5 -13.2 and miR-21 FLuc -4.9%.
For CCc1cc(C(=O)OC)c(NC(=O)CC2NCCNC2=O)s1 (stereo not given) the results were Rango-impB inh 5.2%, Rango release inh -4.9%, GLA inh pH 4.5 -6.0 and miR-21 FLuc -2.2%.
For CCOc1ccc(-n2c(SC)nc3c(c2=O)SCC3)cc1 the results were Rango-impB inh 2.4%, Rango release inh -13.0%, GLA inh pH 4.5 -10.0 and miR-21 FLuc -3.1%.
